Source: PubChem (National Center for Advancing Translational Sciences (NCATS))
2A firefly – Primary qHTS Assay for Foot and Mouth Disease Virus Antivirals against NCGC Sytravon and CBC Compound Libraries: Firefly Luciferase Signal; HEK cells with a luciferase reporter of 2A StopGo recoding; Potency, µM (series often up to 57.5 µM), for inactives: top-dose signal change, negative = less light; 120,000 compounds, 0.23% hits; AID 1745856, 2022; active = well fitted falling curve with a large enough effect; inconclusive = small, poorly fitted or top-dose-only effect; inactive = no such curve, though single readings can be large or run the other way; also: nearly all actives have a fitted effect of over 60% in size; overnight with compound
StopGo RLuc – Primary qHTS Assay for Foot and Mouth Disease Virus Antivirals against NCGC Sytravon and CBC Compound Libraries: Renilla Luciferase Signal | HEK cells with a luciferase reporter of 2A StopGo recoding | Potency, µM (highest dose often 57.5 µM), for the others: at the highest dose signal change, negative = less light | 120,000 compounds, 0.32% hits | AID 1745857, 2022; active means well fitted falling curve with a large enough effect; inconclusive means small, poorly fitted or top-dose-only effect; inactive means no such curve, though single readings can be large or run the other way; also: nearly all actives have a fitted effect of over 55% in size; overnight with compound
Active calls of the source: *; & = joins results of further samples; [ ] = remark or other dose. % is scaled to controls: 0 for no effect and ±100 for the full control effect; potency is read from the fitted curve at half-maximal effect. This is a subset (hit frequency here may not be typical).

`CCC(=O)Nc1nnc2n1CCS2` gave 2A firefly -6.5% and StopGo RLuc -10.8%.
`O=C(Nc1nc2ccccc2s1)c1ccc(S(=O)(=O)N2CCCC2)cc1` gave 2A firefly 23.4% and StopGo RLuc -17.7%.
For O=c1oc2ccc(Br)cc2cc1S(=O)(=O)N1CCCCC1 the results were 2A firefly -7.0% and StopGo RLuc -23.1%.
CCc1cccc(NC(=O)Cn2nc3c4cc(F)ccc4n(Cc4cccc(C)c4)cc-3c2=O)c1 was read as 2A firefly -18.2% and StopGo RLuc -4.3%.
COc1cc(OC)c(C2CC(=O)Oc3n[nH]c(-c4ccccc4)c32)cc1OC (centres undefined) was read as 2A firefly 1.4% and StopGo RLuc -4.3%.
`COc1ccc(/C(O)=C2\C(=O)C(=O)N(Cc3ccco3)C2c2cccnc2)cc1F` (centres undefined) gave 2A firefly -5.4% and StopGo RLuc -10.2%.
`NC(=O)CSc1ncnc2cc(-c3ccc(Cl)cc3)sc12` gave 2A firefly -24.5% and StopGo RLuc -4.3%.
Screening CCOC(=O)c1oc2ccccc2c1COC(=O)CNC(=O)c1cccc(C)c1 returned 2A firefly 0.0% and StopGo RLuc 4.0%.
Screening Cc1ccc(C2CCCN2C(=O)Nc2ccc(F)c(Cl)c2)cc1 (centres undefined) returned 2A firefly -28.4% and StopGo RLuc -15.6%.
Screening COc1ccc(C2=C(C)C(=O)N(Cc3ccc(C(=O)NC(C)c4ccccc4)cc3)S2(=O)=O)cc1 (centres undefined) returned 2A firefly 1.4% and StopGo RLuc -2.4%.

5 compounds already listed, arranged by heavy-atom count, low to high.
`CCC(=O)Nc1nnc2n1CCS2` gave 2A firefly -6.5% and StopGo RLuc -10.8%.
For O=c1oc2ccc(Br)cc2cc1S(=O)(=O)N1CCCCC1 the results were 2A firefly -7.0% and StopGo RLuc -23.1%.
COc1cc(OC)c(C2CC(=O)Oc3n[nH]c(-c4ccccc4)c32)cc1OC (centres undefined) was read as 2A firefly 1.4% and StopGo RLuc -4.3%.
Screening CCOC(=O)c1oc2ccccc2c1COC(=O)CNC(=O)c1cccc(C)c1 returned 2A firefly 0.0% and StopGo RLuc 4.0%.
CCc1cccc(NC(=O)Cn2nc3c4cc(F)ccc4n(Cc4cccc(C)c4)cc-3c2=O)c1 was read as 2A firefly -18.2% and StopGo RLuc -4.3%.

(next part)
Screening CCOc1cccc(OCCCn2c(-c3ccc(Br)cc3)nc3ccccc3c2=O)c1 returned 2A firefly 33.6%[activator] and StopGo RLuc 12.4%.
Screening Cc1nc2c3ccccc3nc(NNC(=O)CCC(=O)N3CCN(c4cccc(Cl)c4)CC3)n2n1 returned 2A firefly 0.0% and StopGo RLuc -18.6%.
`Cc1cc(C)cc(-n2cnc3cc(C(=O)NC4CCCCCC4)ccc32)c1` gave 2A firefly inconclusive and StopGo RLuc -61.3%.
`Cc1ccc2ncc3c(-c4ccccc4)nn(CC(=O)NC4CCCCC4)c3c2c1` gave 2A firefly -22.7% and StopGo RLuc -26.0%.
`COCCNc1nc2c(c(=O)n(Cc3cccc(Cl)c3)c(=O)n2C)n1C` gave 2A firefly -8.0% and StopGo RLuc -1.8%.
For Cc1ccc(C)c(N2CCN(C(=O)C3CCN(c4nnc(-n5c(C)ccc5C)s4)CC3)CC2)c1 the results were 2A firefly inconclusive and StopGo RLuc 11.2µM*.
Screening O=S(=O)(Nc1cccc(-c2ccc(N3CCCC3)nn2)c1)c1cc(F)ccc1F returned 2A firefly 40.8%[activator] and StopGo RLuc 33.8%[activator].
For N#Cc1ccc(NC(=O)CCC2CCCCC2)cc1Cl the results were 2A firefly 0.0% and StopGo RLuc 82.8%[activator].
`COc1cccc(CNc2nc3ccccc3c3nc(-c4cccc(C)c4)nn23)c1` gave 2A firefly 103.1%[activator] and StopGo RLuc -14.7%.
Screening CCc1ccc(NC(=O)CSc2nc3c(c(=O)[nH]2)CN(Cc2ccc4c(c2)OCO4)CC3)cc1 returned 2A firefly 8.8%&-5.7% and StopGo RLuc -5.1%&-11.1%.
Screening CCOC(=O)c1cccc(NC(=O)C(C)n2nc(C)c3c(C)n(-c4ccccc4)nc3c2=O)c1 (centres undefined) returned 2A firefly -8.7% and StopGo RLuc -13.3%.
Screening CC(NC(=O)c1cc(=O)c2ccccc2o1)c1ccc(-c2ccccc2)cc1 (centres undefined) returned 2A firefly inconclusive and StopGo RLuc inconclusive.
`CCCCCCCCc1ccc(-c2ccc(CC)cc2)nc1` gave 2A firefly inconclusive and StopGo RLuc -6.8%[1.06 µM].
Screening Cc1cccc(NC(=O)c2cc3c(s2)-c2ccccc2S(=O)(=O)C3)n1 returned 2A firefly 20.7% and StopGo RLuc 9.2%.
CCc1nc(NCCN(C)C)c(C#N)c2c1CCCC2 was read as 2A firefly -0.7% and StopGo RLuc -12.8%.
CCN1CCN(C(C(=O)O)c2c[nH]c3ccc(NC(=O)c4ccccc4)cc23)CC1 (centres undefined) was read as 2A firefly 14.2% and StopGo RLuc -8.4%.
CC(Oc1ccccc1F)C(=O)Nc1cccc(-c2nc3ccccc3o2)c1 (centres undefined) was read as 2A firefly 0.0% and StopGo RLuc 2.5%.
`Cc1cc(=O)n2c3ccccc3n(CC(O)CNc3ccc(Cl)cc3)c2c1C#N` (centres undefined) gave 2A firefly -3.7% and StopGo RLuc -6.8%.
`COc1ccc(CCNC(=O)c2cc(=O)c3ccc(C)cc3o2)cc1OC` gave 2A firefly -2.0% and StopGo RLuc 6.7%.
Screening CCOC(=O)c1cc(-c2ccccc2)n(CCCC(=O)Nc2ccc(C(C)C)cc2)c1C returned 2A firefly 13.4% and StopGo RLuc 8.1%.
Cn1c(=O)c2[nH]c(-c3ccc(Cl)cc3Cl)nc2n(C)c1=O was read as 2A firefly 1.1% and StopGo RLuc -10.3%.
For CCN(CC)Cc1ccc(CNC(=O)CCC2CCCC2)cc1 the results were 2A firefly 23.8% and StopGo RLuc 3.7%.
CCCNC(=O)N(CC)Cc1nc(-c2ccc(C)cc2)no1 was read as 2A firefly 38.3%[activator] and StopGo RLuc -13.0%.
Screening CCOC(=O)c1sc2nc(CC(=O)OC)nc(Nc3ccc(C(F)(F)F)cc3)c2c1C returned 2A firefly 5.9% and StopGo RLuc 2.6%.
`COc1ccc(C(=O)C2CC(=O)Nc3c2c(C)nn3-c2ccc(C)c(C)c2)cc1` (centres undefined) gave 2A firefly 22.8% and StopGo RLuc 6.4%.
For O=C(NCc1ccccc1Cl)c1ccc(CSCc2cccc(F)c2)o1 the results were 2A firefly -17.9% and StopGo RLuc 9.0%.
Cc1ccc(NC(=O)CSc2nnc(C)c(=O)[nH]2)cc1 was read as 2A firefly 2.9% and StopGo RLuc -5.1%.
`O=C(Nc1cccc(CN2CCOCC2)c1)/C(=C/c1ccccc1)c1ccccc1` gave 2A firefly -2.6% and StopGo RLuc -3.2%.
Cc1ccc(O)c(C(=O)OCC(=O)c2cccs2)c1 was read as 2A firefly -2.6% and StopGo RLuc 11.9%.
`Cc1cccc(C)c1NC(=O)Cn1c(=O)n(Cc2ccco2)c(=O)c2ccc(C(=O)NC3CCCC3)cc21` gave 2A firefly 0.4% and StopGo RLuc -4.6%.
`Cc1cc(NC(=O)c2ccccc2F)cc(-c2nc3ccccc3o2)c1O` gave 2A firefly -8.9% and StopGo RLuc -11.8%.
Screening CCOc1cc(C(=O)Nc2ccc(N3CCN(S(C)(=O)=O)CC3)cc2)cc(OCC)c1OCC returned 2A firefly 1.8% and StopGo RLuc -2.9%.
COC(=O)c1ccc(OCc2ccc(C#N)cc2)c(OC)c1 was read as 2A firefly 0.0% and StopGo RLuc 21.9%.
For COc1ccc(N2C(=O)CN(Cc3ccccc3OC)[C@H]3CS(=O)(=O)C[C@H]32)cc1Cl the results were 2A firefly -14.1% and StopGo RLuc -5.2%.
COc1cccc(CNC23CC4CC(CC(C4)C2)C3)c1 was read as 2A firefly inconclusive and StopGo RLuc -2.5%[1.06 µM].
`CN(C)C(=O)COC(=O)c1cc(-c2ccc(Cl)s2)nc2ccccc12` gave 2A firefly 0.0% and StopGo RLuc 2.4%.
Screening C/C(=N\O)c1ccc(C(C)C)cc1 returned 2A firefly 0.0% and StopGo RLuc 5.7%.
Screening Cc1ccc2c(Cl)cc(Cl)c(O)c2n1 returned 2A firefly 13.2%[11.5 µM] and StopGo RLuc -0.4%.
Screening O=C(Nc1cccc(F)c1)c1ccc2c(c1)N(Cc1ccccc1)C(=O)c1ccccc1S2(=O)=O returned 2A firefly -9.1% and StopGo RLuc -4.3%.
For CCNC(=O)CN1c2ccc(F)cc2-c2ccccc2S1(=O)=O the results were 2A firefly -0.4% and StopGo RLuc 6.7%.
CCOc1ccc(CCNC(=O)Cn2ccc3cc(S(=O)(=O)N4CCCCC4)ccc32)cc1 was read as 2A firefly inconclusive and StopGo RLuc 54.6%[activator].
`Cc1ccc(CNC(=O)CN2CCN(Cc3ccc(F)cc3Cl)C2=O)cc1` gave 2A firefly -11.5% and StopGo RLuc -1.0%.
`COc1ccc(-c2cc3ccc(O)c(CN4CCN(C)CC4)c3oc2=O)cc1OC` gave 2A firefly -4.4% and StopGo RLuc -8.4%.
COc1ccc(C(=O)NCc2nc(-c3cccc(C)c3)no2)cc1OC was read as 2A firefly 0.6% and StopGo RLuc -11.6%.
CC(C)C(=O)N(Cc1cc(=O)[nH]c2ccccc12)c1ccccc1 was read as 2A firefly -2.2% and StopGo RLuc -6.1%.
Screening Cn1c(=O)oc2cc(S(=O)(=O)N3CCCC(C(=O)NCc4ccccc4Cl)C3)ccc21 (centres undefined) returned 2A firefly -4.4% and StopGo RLuc 0.9%.
For CCC(C)NC(=O)CN1C(=O)N(c2cc(C)cc(C)c2)S(=O)(=O)c2ccccc21 (centres undefined) the results were 2A firefly -5.0% and StopGo RLuc 6.3%.
CCOc1ccc(N(CC)S(=O)(=O)c2cc(Br)cc3c2N(C(C)=O)C(C)C3)cc1 (centres undefined) was read as 2A firefly -16.1% and StopGo RLuc 11.7%.
Screening COc1ccc(CCNc2nc(-c3ccc(OC)c(OC)c3)cc(C(F)(F)F)n2)cc1OC returned 2A firefly -3.5% and StopGo RLuc 9.8%.
For Cc1ccc(Cn2c(SCc3ccc(C(=O)N4CCCCC4)cc3)nc3ccncc32)cc1 the results were 2A firefly inconclusive and StopGo RLuc inconclusive.
`COc1ccc2nc(/C(C#N)=C/c3ccc(-c4cccc(Cl)c4Cl)o3)[nH]c2c1` gave 2A firefly 20.5% and StopGo RLuc -8.6%.
Screening COc1cccc(-c2cc(=O)n3[nH]c(C(F)(F)F)nc3n2)c1 returned 2A firefly 96.2%[activator] and StopGo RLuc -20.3%.
`Cc1ccc(CC(=O)C(C#N)C(=O)Nc2c(C)cccc2C)cc1` (centres undefined) gave 2A firefly -14.2% and StopGo RLuc -11.5%.
`COc1ccc(OCc2ccc(-c3nc(C#N)c(N4CCC(C)CC4)o3)o2)cc1` gave 2A firefly 27.7% and StopGo RLuc 22.9%.
Screening COc1ccccc1NC(=O)CSC1=Nc2ccccc2C2=NC(CC(=O)NCc3ccc4c(c3)OCO4)C(=O)N12 (centres undefined) returned 2A firefly -16.2% and StopGo RLuc 1.6%.
Screening Cc1ccc(C(=O)c2sc(Nc3ccccc3)c(S(=O)(=O)c3ccccc3)c2N)c(C)c1 returned 2A firefly -2.9% and StopGo RLuc 44.0%[activator].
Screening Cc1cc(=O)oc2cc(OCC(=O)Nc3cccc(C(=O)O)c3)ccc12 returned 2A firefly inconclusive and StopGo RLuc -5.5%.
COCCCNC(=O)CSc1cc(C)ccc1C was read as 2A firefly -1.5% and StopGo RLuc 9.7%.
`O=C(Nc1ccc2oc(-c3ccncc3)nc2c1)c1ccc2c(c1)OCCO2` gave 2A firefly 61.9%[activator] and StopGo RLuc 8.5%.
Screening Cc1ccc(-c2nc(CSc3nncn4c3cc3occc34)c(C)o2)cc1 returned 2A firefly 56.1%[activator] and StopGo RLuc 2.8%.
CN(C)CCCN(C(=O)COc1ccc(Cl)cc1)c1nc2c(F)cccc2s1 was read as 2A firefly 0.0% and StopGo RLuc 10.7%.
For COC(=O)c1ccc(OC)c(Cn2c(=O)n(-c3ccc(C)cc3)c(=O)c3c2cnn3C)c1 the results were 2A firefly 2.7% and StopGo RLuc 0.9%.
`CC1CN(c2nc(-c3ccsc3)nc3ccccc23)CCO1` (centres undefined) gave 2A firefly 10.3% and StopGo RLuc 4.9%.
O=C(Nc1ccccc1)c1ccccc1NC(=O)C(c1ccccc1)c1ccccc1 was read as 2A firefly -6.3% and StopGo RLuc 19.1%.
For Cc1c(C(=O)NCc2cccc(Cl)c2)sc2nc3n(c(=O)c12)CCCC3 the results were 2A firefly 55.6%[activator] and StopGo RLuc 4.0%.
Screening COc1ccc(Nc2cc(C)nc(-n3nc(C)cc3C)n2)cc1Cl returned 2A firefly inconclusive and StopGo RLuc inconclusive.
Screening O=C(C1CCN(S(=O)(=O)c2ccc(Cl)cc2)CC1)N1CCCC1c1ccccc1 (centres undefined) returned 2A firefly -7.0% and StopGo RLuc 3.3%.
For Cn1c(=O)c2c(ncn2CCC(=O)Nc2ccc(F)c(F)c2)n(C)c1=O the results were 2A firefly 11.0% and StopGo RLuc -2.3%.
Screening Cc1cccc(CN2CCCN(c3cccc(C(=O)NCc4ccc5c(c4)OCO5)c3)C2=O)c1 returned 2A firefly inconclusive and StopGo RLuc -60.8%.
`COc1ccc(-c2nc3cc(NC(=O)c4ccccc4Cl)ccc3o2)cc1` gave 2A firefly 11.0% and StopGo RLuc 9.7%.
`CCOc1ccc(CNS(=O)(=O)c2ccc3c(c2)CCCN3C(C)=O)cc1` gave 2A firefly -3.1% and StopGo RLuc 35.1%[activator].
